Tg IFNy HTS – blocks Toxoplasma gondii growth in the presence of IFN-gamma. Toxoplasma gondii growth in IFN-gamma-treated host cells; hits give low values; reference of the scale not given here. activity change, negative = inhibition, %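 (about 20 µM by stock and volumes)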. hit rate 3.8% among 69,000;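 active = below -70%; inconclusive = fit judged invalid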;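 also: host cells are HeLa cells infected with Toxoplasma gondii; parasite growth read as luciferase light; one replicate is shown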
The depositor's hits bear a star; ? = inconclusive. Only part of the results is shown; count on the stated rates, not on these rows.

SMILES	Tg IFNy HTS
Cc1ccccc1-c1noc(-c2cccc(NC(=O)C(C)n3cncn3)c2)n1 (stereo unspecified)	45
Fc1cccnc1O[C@H]1CN(c2nncs2)[C@H]2CCCO[C@@H]12	70
CCOc1ccc(S(=O)(=O)Nc2nccs2)cc1	12
Nc1nc(N)c2nc(-c3cccc(O)c3)cnc2n1	?
CCn1c(=O)c(C(=O)NCCN2CCOCC2)c(O)c2ccccc21	0
COCC(=O)N1CC[C@H]2[C@@H]1c1cc(-c3cccc(F)c3)ccc1N(C)[C@H]2CO	10
Cc1cccc(S(=O)(=O)Nc2ccc3c(c2)CCC(=O)N3C)c1	52
C=CCn1c(=O)c(C(=O)NCCc2ccc(OC)c(OC)c2)c(O)c2ccccc21	390
Cc1noc(-c2ccc(N3CCN(C)C(C(=O)O)C3)nc2)n1 (stereo unspecified)	-1
COc1ccc(Nc2nc(-c3nnc(-c4ccc(F)cc4)o3)nc3ccccc23)cc1	16
COc1ccc(S(=O)(=O)N[C@@H]2CC[C@@H](N)C2)c2c1CCCC2	-40
C=C(C)CN(CC)C(=O)CCc1c(C)nc2ncnn2c1C	-5
CC(C)N1CCC2(CC1)CC(COCC1CC1)N(c1ncccn1)C2 (stereo unspecified)	-46
O=C(NCCc1csc(-c2cccc(F)c2)n1)C(=O)Nc1cc(F)ccc1F	-26
COc1ccc2c3c(n(C)c2c1)[C@@H](CO)NCC31CN(C(=O)c2cccc(F)c2)C1	-49

Rewritten with each value named: part of the list above.
canonical_smiles: COc1ccc(Nc2nc(-c3nnc(-c4ccc(F)cc4)o3)nc3ccccc23)cc1
  Tg IFNy HTS = 16

canonical_smiles: COc1ccc2c3c(n(C)c2c1)[C@@H](CO)NCC31CN(C(=O)c2cccc(F)c2)C1
  Tg IFNy HTS = -49

canonical_smiles: COc1ccc(S(=O)(=O)N[C@@H]2CC[C@@H](N)C2)c2c1CCCC2
  Tg IFNy HTS = -40

canonical_smiles: CCOc1ccc(S(=O)(=O)Nc2nccs2)cc1
  Tg IFNy HTS = 12

(cont.)
SMILES	Tg IFNy HTS
c1ccc(CCCN2CCCC3(CCNC3)C2)cc1 (stereo unspecified)	-10
O=C(c1cccs1)n1c2ccc(F)cc2c2nc3ccccc3nc21	20
CC(C)CNC(=O)CC1CC2(CCN(C(=O)Nc3ccccc3)CC2)Oc2ccccc21 (stereo unspecified)	-2
Cc1cc(C)nc(N2CCCC(CCCO)C2)n1 (stereo unspecified)	-3
CO[C@@H]1CCN(c2ccc(C)nn2)[C@H]1Cc1ccccc1	-10
Cc1oc(C2CCN(C(=O)c3ccc(C(F)(F)F)cc3)CC2)nc1C(=O)N1CCCC1	6
CC(C)(C)c1ccc(C(=O)NCCc2csc(-c3ccc(Cl)cc3)n2)cc1	16
CO[C@H]1CN(C)C(=O)c2cc(NC(=O)NC(C)C)ccc2OC[C@H](C)N(Cc2ccccc2)C[C@@H]1C	-47
COc1cccc(C(=O)N2C[C@@H]3[C@H](c4ccccc42)[C@H](CO)N3C(=O)c2cccc(F)c2)c1	-4
CC(C)n1ccnc1CN1CCC(CNC(=O)c2ccsc2)C1 (stereo unspecified)	-1
CCOc1ccc(C(=O)Nc2ccc3c(c2)CCC(=O)N3CC(C)C)cc1	-82*
O=C(c1ccc(-n2cnnn2)cc1)N1CC[C@@H](c2ccc(F)cc2)[C@H](O)C1	10
CC(C)NC(=O)C1CCN(C2CCN(C(=O)C3=NNC(=O)CC3)CC2)CC1	-1
COCC(NS(=O)(=O)NCc1ccccc1)c1ccccn1 (stereo unspecified)	1
O=C(CCc1ccc2cc[nH]c2c1)N1CCN(c2ccccn2)CC1	117

Taken from the entries so far (5 entries):
SMILES	Tg IFNy HTS
CC(C)(C)c1ccc(C(=O)NCCc2csc(-c3ccc(Cl)cc3)n2)cc1	16
CO[C@H]1CN(C)C(=O)c2cc(NC(=O)NC(C)C)ccc2OC[C@H](C)N(Cc2ccccc2)C[C@@H]1C	-47
COc1cccc(C(=O)N2C[C@@H]3[C@H](c4ccccc42)[C@H](CO)N3C(=O)c2cccc(F)c2)c1	-4
CC(C)n1ccnc1CN1CCC(CNC(=O)c2ccsc2)C1 (stereo unspecified)	-1
CCOc1ccc(C(=O)Nc2ccc3c(c2)CCC(=O)N3CC(C)C)cc1	-82*

(continued)
SMILES	Tg IFNy HTS
CS(=O)(=O)N1CCn2nnc(COCc3cccnc3)c2C1	-2
O=C(C[C@@H]1CC[C@@H]2[C@H](COC[C@H](O)CN2S(=O)(=O)c2ccccc2)O1)NCC1CCCCC1	-30
CCN1C(=O)C2(CCOCC2)c2cc(Nc3ncccn3)ccc21	-3
N#Cc1ccc(-c2ccc3c(c2)[C@H]2[C@H](CCN2C(=O)c2cccnc2)[C@@H](CO)N3)cc1	4
Cc1cc(-c2nc(C3(c4ccc(F)cc4)CCOC3)no2)n[nH]1 (stereo unspecified)	12
CSc1cccc(NC(C#N)c2ccccc2)c1 (stereo unspecified)	262
Cc1nn(CC(=O)NCc2ccncc2)c(=O)c2nc(-c3ccccc3)sc12	175
Cc1ccc2[nH]c(C(=O)O)c(-c3c(-c4ccccc4)ncn3CCCO)c2c1	0
CCOC(=O)c1c(-c2ccc(C)cn2)csc1N	4
O=C(Nc1ccccc1)c1ccc(CSc2ccc(C(F)(F)F)cn2)o1	-13
Cn1ccnc1CN1CCC2(CC1)CN(CCO)c1ccccc12	-29
COc1ccc2[nH]c(C(=O)NCc3cccnc3N(C)C)c(C)c2c1	8
Cc1ccccc1-c1ccc([C@@H]2[C@H](CO)N3C(=O)CN(C(=O)NC4CCCC4)C[C@@H]23)cc1	-51
COC(=O)c1ccc(-c2noc(CN(C)Cc3cc4ccccc4s3)n2)cc1	10
CS(=O)(=O)N1CCN(c2ccc(N)cc2)CC1	-4
CN1CC2(CCN(C(=O)c3cnc4cccnn34)C2)OC1=O (stereo unspecified)	147
COCC#Cc1ccc([C@@H]2[C@H](C#N)N(C(=O)Cc3ccccc3)[C@H]2CO)cc1	-2
O=C(CC1N=C2c3ccccc3N=C(SCc3ccccc3Cl)N2C1=O)NCCc1ccccc1 (stereo unspecified)	10
O=C(O)/C=C/C=C/c1ccccc1	21
Cn1cc(NC(=O)CN2CCCCC2CCN2CCOCC2)cn1 (stereo unspecified)	8
O=C(C[C@H]1CC[C@H]2[C@@H](COC[C@H](O)CN2Cc2cccc(Cl)c2)O1)NCc1cccc(F)c1	-49
CN(C)C(=O)C1CC2(CO1)c1ccccc1CN2CC1CC1 (stereo unspecified)	-1
Cc1nc(CNC2CCN(c3cccc(C)c3C)CC2)cs1	-4
Oc1c(F)cccc1CN1CC[C@@H](c2ccc3ccccc3c2)[C@H](O)C1	5
C[C@@H]1CC[C@H](C)N1C(=O)c1cc(COc2cccc(F)c2)[nH]n1	44
Cc1cccc(-c2nnc(-c3nc(NCc4ccc(N(C)C)cc4)c4ccccc4n3)o2)c1	6
O=C(c1ccccn1)N1CC[C@@H]2[C@H]1c1cc(Br)ccc1N[C@@H]2CO	19
Cc1nn(C)c(C)c1-c1cc(C(=O)N2C[C@H]3C[C@H](O)[C@H](O)C[C@H]3C2)n(C)n1	3
CC(=O)N(Cc1cccc(F)c1)C[C@H]1[C@@H](c2ccccc2)[C@@H](CO)N1C(C)=O	-19
CSc1nc(C(=O)N2CCN3C(=O)CN(C)C(=O)C3C2)cs1 (stereo unspecified)	4
O=C(O)CCSc1nc2ccccc2s1	-27
Cc1ccc(-c2coc(-c3ccc(NC(=O)Nc4cccc(Br)c4)cc3)n2)cc1	82
O=C(O)c1nn(Cc2ccccn2)c2c1CN(C(=O)CN1CCCCC1)CC2	13
Cc1nc(N2CCCC2)nc2c1CCN(S(=O)(=O)c1ccccc1)CC2	-49
CC1CCN(S(=O)(=O)c2ccc3c(ccc(=O)n3CC(=O)N3CCCC3)c2)CC1	8
COC(=O)CS(=O)(=O)c1cc(C)c(Cl)cc1Cl	-18
C/C=C/Cn1c(SC)nc2c1c(=O)[nH]c(=O)n2C	-13
CCC1(O)CCCN(Cc2nc(-c3cc(OC)c4c(c3)OCO4)oc2C)C1 (stereo unspecified)	-11
CNS(=O)(=O)c1ccc(CCC(=O)NC2CCCOC2)cc1 (stereo unspecified)	-14
Cc1[nH]c2ccccc2c1C(=O)N1CCC(CC(=O)N2CCN(c3ccccc3)CC2)CC1	31
CCn1c(CC2CCN(C(=O)c3cccc(-n4cccn4)c3)CC2)nn(C)c1=O	3
CCN1CCC2(CN(CCOC)CC23CCN(Cc2cnn(C)c2)CC3)C1=O (stereo unspecified)	8
O=C1N[C@@H]2[C@@H](O)[C@@H](O)[C@H](O)[C@@H](CO)N2C1=O	3
O=C(NCc1nc(Cc2ccccc2)no1)c1ccc(N2CCOCC2)cc1	-4
COCC(=O)Nc1ccc2c(c1)C(=O)N(C)[C@@H]1CC[C@@H](CC(=O)NCCCN(C)C)O[C@H]1CO2	10
Oc1ccccc1-c1nc2ccccc2o1	11
O=C1CCc2cc(S(=O)(=O)NCc3ccccc3)cc3c2N1CC3	-7
CC(C)n1nccc1NC(=O)CN1CCC(C2CCCCN(C)C2=O)CC1 (stereo unspecified)	-6
CN1CC2(CCN(C(=O)c3cc4c(s3)CCCCC4)C2)OC1=O (stereo unspecified)	11
O=C(Nc1ccccc1-c1nc(-c2ccccc2)no1)c1cccnc1	8
Cc1ccc(CN2C[C@@H](C(=O)NC3CC3)C[C@@H]3OCC[C@@H]32)s1	3
CN1C(=O)N(CCc2ccccc2)C(=O)C12CCN(Cc1ccc(-c3ccccc3Cl)o1)CC2	3
CON(C)c1nc(OCCNC(=O)OCc2ccc(Cl)cc2Cl)nc(N(C)C)n1	-60
Cc1n[nH]c(C)c1CCN(C)C(=O)c1cn[nH]n1	0
O=C(C[C@@H]1CC[C@H](NC(=O)CN2CCOCC2)[C@@H](CO)O1)NC1CCC1	-36
Cc1cccc(-c2nc(CSc3nc4c(c(=O)[nH]3)CN(Cc3ccc(Cl)cc3)CC4)c(C)o2)c1	-2
O=C(Nc1ccc(F)cc1F)N1CCN(c2ncccn2)CC1	-32
O=S(=O)(c1ccccc1)N1CC2CN(Cc3ccccc3F)C2C1 (stereo unspecified)	-22
O=C(NC1CCCCC1)N1CCc2[nH]c3ccccc3c2C1	24
O=C1CC(C(=O)N2CCOCC2)CN1CCc1c[nH]c2ccc(Cl)cc12 (stereo unspecified)	418

3 compounds out of the list, arranged by number of heavy atoms, lowest first.
SMILES	Tg IFNy HTS
O=C(NC1CCCCC1)N1CCc2[nH]c3ccccc3c2C1	24
O=C1CCc2cc(S(=O)(=O)NCc3ccccc3)cc3c2N1CC3	-7
CC(C)n1nccc1NC(=O)CN1CCC(C2CCCCN(C)C2=O)CC1 (stereo unspecified)	-6

Next part
SMILES	Tg IFNy HTS
CNC(=O)c1cccc2cccc(S(=O)c3cccc4cccc(C(=O)O)c34)c12 (stereo unspecified)	19
CN1CCN(C(=O)C[C@@H]2CC[C@@H]3[C@H](COc4ccc(NC(=O)c5cccs5)cc4C(=O)N3C)O2)CC1	11
CCOCCOc1ccccc1C(N)=O	25
COC(=O)c1ccc(CNC(=O)Nc2cccc(SC)c2)cc1	-62
COc1ccc2c3c(n(C)c2c1)[C@@H](CO)NCC31CN(CC2CCOCC2)C1	229
O=C(Nc1cc(F)ccc1F)N[C@@H]1CC[C@H](CC(=O)N2CCc3ccccc3C2)O[C@H]1CO	21
C=CCN(Cc1ccccc1Cl)C(=O)c1ccc(C#CC(C)(C)O)cc1	-13
COC[C@@H]1CN(C)C[C@]12CCN(C(=O)c1cc3ccccc3s1)C2	-2
Cc1ccc(S(=O)(=O)N2CC[C@@H]3C[C@H](NC(=O)CSc4nnc(C)o4)[C@@H]32)cc1	36
CCOCc1cnc2n1CCN(Cc1c(C)noc1C)C2C (stereo unspecified)	1
O=C(c1ccno1)N1CCC2(CC1)CC(=O)N(CCO)c1ccccc12	-2
O=C(Nc1ccccc1)c1cccc2[nH]cc(CN3CCCC3)c12	69
Cc1nc2c(c(=O)[nH]1)CCN(C(=O)Cn1cc(C(F)(F)F)ccc1=O)C2	19
COCCN1CCCn2c(nc(CNC(=O)c3ccco3)cc2=O)C1	1
CCc1[nH]c2ccc(CNC(=O)CCc3nncn3C)cc2c1C	11

The list goes on; it opens with the 2 that closed the last part.
SMILES	Tg IFNy HTS
COCCN1CCCn2c(nc(CNC(=O)c3ccco3)cc2=O)C1	1
CCc1[nH]c2ccc(CNC(=O)CCc3nncn3C)cc2c1C	11
Cc1oc(C2CCN(S(=O)(=O)CCc3ccccc3)CC2)nc1C(=O)N1CCCC1	-29
COCC(=O)N1CC2(C1)[C@H](c1ccc(-c3ccc(C)cc3)cc1)[C@@H](CO)N2C(C)=O	-40
COCCN(C)C(=O)c1cc2c(s1)CCN2C(=O)c1cccnc1	-36
COC(=O)COc1cc(C)nc(SC)n1	-13
CC(CNC(=O)c1cccs1)N(C)c1ccccc1 (stereo unspecified)	-35
COc1ccc(CNC(=O)c2nc(N3CCCC3)c3ccccc3n2)cc1	-24
CN(C)Cc1n[nH]c2c1CCN(C(=O)CC1CC1)C2	-43
OC(CN1CCNCC1)Cn1ccc2ccccc21 (stereo unspecified)	23
CN(C)C(=O)N[C@@H]1CN(C2CCOCC2)C2CCCOC21 (stereo partly specified)	-11
CC(C)c1cc(C(=O)N(C)CCC(O)c2ccccc2)n(C)n1 (stereo unspecified)	3
COc1ccc(S(=O)(=O)N2C[C@@H](O)COC[C@H]3O[C@H](CC(=O)N[C@H]4CCN(Cc5ccccc5)C4)CC[C@@H]32)cc1	-2
CCOc1ccc(NC(=O)c2c(O)c3cccnc3n(-c3ccccc3)c2=O)cc1	-20
COc1ccc(C#Cc2ccc([C@H]3[C@H](CO)N4CCCCN(C)C[C@@H]34)cc2)cc1	-4
O=C(Nc1cc(F)ccc1F)N1CCCCN2[C@@H](CO)[C@@H](c3ccc(C4=CCCCC4)cc3)[C@@H]2C1	-58
